Bioassay records deposited in PubChem by National Center for Advancing Translational Sciences (NCATS).
ClpP mod = qHTS Assay for Activators of ClpP; Potency, µM (top dose mostly 57.5 µM), for the others: top-dose activity change, negative = active; ATP-dependent Clp protease proteolytic subunit (Bacillus subtilis (strain 168)), P80244; purified B. subtilis ClpP, FRET peptide cleavage, 20 min; hit rate 1.9% among 340,000; active = well fitted falling curve with a large enough effect; inconclusive = small, poorly fitted or top-dose-only effect; inactive = no such curve, though single readings can be large or run the other way; further: the source files actives as falling curves though it sought activators and does not explain the sign; nearly all actives have a fitted effect of over 65% in size; many hits overshoot -100%
Target sequence (P80244 whole entry, looked up): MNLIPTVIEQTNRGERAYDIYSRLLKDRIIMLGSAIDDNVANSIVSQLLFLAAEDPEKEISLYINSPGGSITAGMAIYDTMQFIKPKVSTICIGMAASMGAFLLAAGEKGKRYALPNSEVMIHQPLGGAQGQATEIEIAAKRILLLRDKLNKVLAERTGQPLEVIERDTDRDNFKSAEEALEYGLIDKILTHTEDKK
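FRET quenching reversal measured ClpP activation: 10 microg/mL B. subtilis ClpP at pH 8 with the FRET-FV decapeptide, read at 430 nm after 320 nm excitation. The 20-min minus 0-min signal was scaled between DMSO/no-enzyme wells and ADEP (5.8 microM final).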
* marks the source's active call; other numbers are inactive results; ? = inconclusive. Potency means the concentration at half of the fitted maximal effect. A portion of the library (hit frequency here may not be typical).

SMILES	ClpP mod
CC1CCc2c(sc(NC(=O)c3cc4nc(-c5ccc(Cl)cc5)cc(C(F)(F)F)n4n3)c2C#N)C1 (centres undefined)	1.5%
Cc1ccc(-c2cn3nc(N4CCCC(C(=O)NCc5ccc(F)cc5)C4)sc3n2)cc1 (centres undefined)	-2.0%
COc1ccc(Cl)cc1S(=O)(=O)Nc1cccc(-c2ccc(N3CCCC3)nn2)c1	-1.0%
Cc1cccc(NC(=O)Cn2c(=O)n(Cc3ccc4c(c3)OCO4)c(=O)c3oc4ccccc4c32)c1C	-2.3%
CN1CCN(C(=O)c2cnn(-c3cccc(Cl)c3)c2C2CCN(C(=O)OC(C)(C)C)CC2)CC1	-0.2%
COc1cccc(NC(=O)Cn2c(=O)c3cccn3c3ccc(F)cc32)c1	?
CCc1cc(C(=O)NCc2ccccc2)no1	0.1%
Cc1ccc2cccc(NC(=O)COc3cc(C)c(Cl)c(C)c3)c2n1	0.3%
Cc1noc(Cn2c(=O)c3cc4c(cc3n(CC(=O)Nc3ccc(C(C)C)cc3)c2=O)OCO4)n1	35µM*
FC(F)(F)c1cccc(N2CCN(Cc3nnc(-c4ccc5c(c4)OCO5)o3)CC2)c1	-17%
Cc1ccc2nc(COc3cccc(NC(=O)COc4ccccc4F)c3)cc(=O)n2c1	-3.6%
CCOc1ccc(-c2c(C)nn3c(C)c(C(=O)NCCc4ccccc4)cnc23)cc1OCC	2.3%
Cc1ccc(-n2nc(-c3ccc(F)cc3)c3cnc4cc5c(cc4c32)OCO5)cc1C	-5.5%
COc1ccc(-c2oc3c(c2C(=O)OCCCO)C(OCCO)CCC3)cc1 (centres undefined)	5.3%
Cc1cccc(NC(=O)N2CCN(C(=O)c3nsc4ccccc34)CC2)c1C	0.4%
COc1cccc(NC(=O)CSc2nc3c(oc4ccccc43)c(=O)n2Cc2ccco2)c1	-26%
Cc1nn(-c2ccc(N3CCCC3)nn2)c(C)c1CCC(=O)NCc1ccccc1	-1.2%
Cc1ccc(OCC(=O)Nc2ccc3nn(-c4ccc(C)cc4)nc3c2)cc1	-22%
Cc1ccc(C)c(N2CCN(Cc3csc(C)c3)CC2)c1	-1.0%
CCOc1cc(CNC(=O)C(NS(=O)(=O)c2cccs2)C(C)C)cc(OCC)c1OCC (centres undefined)	-1.6%
COc1ccc(CCNC(=O)c2ccc3c(c2)CCN3S(=O)(=O)c2ccc(Cl)cc2)cc1	-1.4%
COc1ccc(OC)c(CNC(=O)c2cc(=O)[nH]c3ccc(S(=O)(=O)N4CCCCC4C)cc23)c1 (centres undefined)	-1.8%
Cc1nc(-c2ccc(Cl)cc2)sc1CCNC(=O)C(=O)Nc1ccc2c(c1)OCCO2	-8.2%
Cc1cc(C)n(-c2nc3ccccc3nc2Nc2cc(Cl)ccc2C)n1	1.4%
CCCCN(Cc1ccccc1)C(=O)CN(C)S(=O)(=O)c1ccc2c(c1)c(=O)n(C)c(=O)n2C	1.4%
CCc1ccccc1N1CC(c2nc3ccccc3n2CCC2CCCCC2)CC1=O (centres undefined)	-2.7%
CCOC(=O)C(Cc1c[nH]c2ccccc12)NC(=O)COc1ccc(Cl)cc1 (centres undefined)	-1.2%
Cc1c(Cl)cccc1-c1ccc(CNCCSc2nnnn2-c2ccccc2)o1	-26%
CCOC(=O)[C@]12CCCC=C1N(CCC1=CCCCC1)C(=O)[C@H](CC(=O)NCc1ccc(C)o1)C2	0.6%
Cc1ccccc1C(=O)Nc1ccc2nc(N3CCCCC3)cc(C)c2c1	4.4%
COc1ccc(-c2cnc(C)o2)cc1S(=O)(=O)Nc1ccc(C)c(N(C)C)c1	-2.3%
O=C(OCC1CCCO1)c1ccc2c(c1)N(Cc1c(F)cccc1Cl)C(=O)c1ccccc1S2(=O)=O (centres undefined)	-4.2%
Cc1cc(NC(=O)c2ccccc2Cl)ccc1NC(=O)c1ccccc1	-0.9%
Cc1ccc(CSc2nnc(-c3ccc(NC(=O)CCc4ccccc4)cc3)n2C)cc1	-3.4%
Cn1c(=O)c(=O)n(C)c2cc(S(=O)(=O)N3CCN(c4ccccc4)CC3)ccc21	-2.8%
Cc1cc(C)c2cccnc2c1O	-2.1%
O=C(CSc1nc2ccsc2c(=O)n1Cc1ccccc1Cl)NCc1ccc(Cl)cc1	0.7%
O=C(c1ccccc1F)N1c2ncnn2C2(CCCCC2)[C@@H]2CCCC[C@@H]21	-2.8%
CN(C)c1ccc(/C=C2\c3ccccc3-c3ccc(N(C)C)cc32)cc1	-0.3%
CCCc1c(-c2ccc(F)cc2)ncn1Cc1ccccc1OC	-1.1%
Cc1ccccc1Cn1nnc2c(=O)[nH]c(C3CCN(C(=O)c4ccc(F)cc4)CC3)nc21	-1.2%
O=C(Cn1ncc2c3ccccc3n(Cc3ccccc3F)c2c1=O)NCc1ccccc1Cl	-1.1%
COc1cccc(-n2c(=O)c3cc(OC)c(OC)cc3n(CC(=O)Nc3ccccc3)c2=O)c1	4.0%
COCCCN1C(=O)C(CC(=O)NCCN2CCOCC2)CC(C(=O)N2CCCCCC2)=C1C (centres undefined)	-0.7%
Cc1ccc(C(C)C)c(OCC(=O)Nc2ccc(-c3nc4ncccc4o3)cc2C)c1	-16%
Fc1ccc(CNc2nc(-c3ccccc3)cc(C(F)(F)F)n2)cc1	?
CC(C)n1c(=N)c(C(=O)NC2CCCCC2)cc2c(=O)n3ccccc3nc21	-13%
O=C(c1cnc2cc(-c3ccccc3)nn2c1)c1cc([N+](=O)[O-])ccc1O	12%
O=C(NCc1ccc2c(c1)CCN2C(=O)c1ccccc1)Nc1cc(F)ccc1F	-3.6%
Cc1nn2c(=O)cc(COC(=O)C(c3ccccc3)c3ccccc3)nc2s1	-3.2%
CCOC(=O)c1c(C)[nH]c(C)c1S(=O)(=O)NCC(=O)NCc1ccccc1Cl	0.4%
CCOC1CCCc2oc(-c3ccc(N(C)C)cc3)c(C(=O)OC)c21 (centres undefined)	5.2%
Cc1ccc(F)cc1NC(=O)Cn1c(C)cc(C)c(C#N)c1=O	-19%
CCCNC(=O)C(=O)NCC(c1ccc2c(c1)OCO2)N1CCOCC1 (centres undefined)	0.9%
CC1=C(C(=O)Nc2ccc(C)cc2C)C(c2ccccc2)n2nc(SCC(=O)c3ccc(C)cc3)nc2N1 (centres undefined)	1.5%
CCOC(=O)c1ccc(NC(=O)c2csc3c2CCCCC3)cc1	?
CCOc1ccc(CCNC(=O)NCc2noc3ccc(C)cc23)cc1	-0.4%
COc1cccc(C2=CC(c3ccccc3F)n3c(nc4ccccc43)N2)c1 (centres undefined)	-0.7%
CN(C)c1ccc(/C=C/c2cc[n+]([O-])c3ccccc23)cc1	2.7%
Cc1ccc(NC(=O)C(=O)NCC(c2cccnc2)N2CCN(C)CC2)cc1 (centres undefined)	-1.4%

More records
SMILES	ClpP mod
CCSc1nn(CC(=O)Nc2cccc(Cl)c2)c(N)c1S(=O)(=O)c1ccc(OC)cc1	-9.0%
COc1cc(-c2nnn(CC(=O)Nc3ccc(OC(F)(F)F)cc3)n2)cc(OC)c1OC	19%
O=C(Cn1cc(SCc2ccc(F)cc2)c2ccccc21)N1CCCC1	0.2%
Cc1ccc2c(=O)c(C(=O)c3ccc(Cl)cc3)cn(CC(=O)Nc3ccc4c(c3)OCCO4)c2n1	0.7%
Cc1ccc(CNC(=O)c2ccc3nc(N4CCCCC4)sc3c2)cc1	?
CCCCn1nnnc1C(c1ccccc1)N1CCN(c2c(Cl)cncc2Cl)CC1 (centres undefined)	1.1%
Cc1ccc(C2=NC(c3ccccc3)=Nc3ccc(Cl)cc3N2)cc1	2.2%
Cc1ccc(-n2ncc3c(N4CCCCCC4)ncnc32)cc1Cl	-11%
O=C(CCSCc1ccccc1Cl)NCc1ccc(F)cc1Cl	-1.1%
Cc1cc(C)cc(N2C(=O)CSC23C(=O)N(CC(=O)Nc2ccc(F)cc2F)c2ccccc23)c1 (centres undefined)	-0.5%
COc1cc(-c2nnc(SCCOc3ccc(Cl)cc3C)o2)cc(OC)c1OC	-7.6%
CN(C)c1ccc(/C=C/c2ccnc3ccc(I)cc23)cc1	-2.5%
O=C(Cn1c(SCc2ccc(F)cc2)nc2cccnc21)Nc1ccccc1F	4.3%
Cc1cccc(OCc2ccc(-c3nc(C#N)c(N4CCC(C(N)=O)CC4)o3)o2)c1	4.1%
CCOC(=O)[C@]12CCC=C1N(Cc1cccc3ccccc13)C(=O)[C@H](CC(=O)N1CCSCC1)C2	-4.1%
Cc1nn(Cc2ccccc2Cl)c(C)c1NC(=O)c1cc(C(C)C)on1	-2.1%
CCc1ccc(-n2c(SCC(=O)NC(C)CC)nc3n[nH]c(C)c3c2=N)cc1 (centres undefined)	7.8%
O=S(=O)(c1ccc(Br)cc1)c1nnn2c1nc(NC1CCCCCC1)c1sccc12	-4.0%
Cc1ccc(C(=O)Nc2nnc(S(=O)(=O)N(C)Cc3ccco3)s2)cc1	-5.2%
CCc1ccc(OCC(=O)Nc2c(C(=O)c3ccc(Br)cc3)oc3ccccc23)cc1	-5.5%
O=c1cc(CSc2ccccc2)[nH]c2ccc(F)cc12	-1.1%
Cc1ccc(CC(=O)Nc2ccc3c(c2)N(C)C(=O)c2ccccc2S3)cc1	0.5%
CCOC(=O)N1CCN(C(=O)c2ccc3c(c2)N(Cc2ccccc2F)C(=O)c2ccccc2S3=O)CC1 (centres undefined)	0.1%
CCOc1ccc(Nc2oc(/C=C/c3cccc(OC)c3)nc2C#N)cc1	-8.0%
CCC(=O)N1c2ccccc2CC1C(=O)NCCc1ccc(SC)cc1 (centres undefined)	-1.9%
COc1ccccc1NC(=O)CSc1oc(-c2ccccc2)nc1S(=O)(=O)c1ccccc1	3.7%
O=C(NCc1ccc2c(c1)CCN2C(=O)c1ccncc1)c1cccc(Cl)c1	-0.2%
Cc1ccccc1NC(=O)Cn1c(=O)n(Cc2ccc3c(c2)OCO3)c(=O)c2ccc(C(=O)NC3CCCCC3)cc21	-3.8%
O=c1c(-c2cc(-c3ccccc3)nc3c2COc2ccc(Cl)cc2-3)coc2ccccc12	-0.1%
COc1ccc(-c2noc(-c3ccc(NCc4cccnc4)c([N+](=O)[O-])c3)n2)cc1	-2.5%
CCn1c(=O)c2cc(C(=O)NC3CCC(C)CC3)sc2c2ccccc21 (centres undefined)	3.3%
Cc1ccc(N2C(=O)CS(=O)(=O)C23C(=O)Nc2ccccc23)cc1C (centres undefined)	1.2%
CCN(CC)S(=O)(=O)c1ccc(OC)c(NC(=O)c2sc3ccccc3c2Cl)c1	0.5%
CCc1ccc(NC(=O)C2CCN(C(=O)N3CC(CC)Oc4ccccc43)CC2)cc1 (centres undefined)	1.2%
Cc1cc(C)c(NC(=O)Cn2c(=O)n(Cc3ccc4c(c3)OCO4)c(=O)c3ccc(C(=O)NC4CCCCC4)cc32)c(C)c1	-5.8%
COc1ccc(N2CCN(C(c3ccccc3)c3nnnn3Cc3ccccc3)CC2)cc1 (centres undefined)	-7.3%
Cc1ccccc1-n1c2nc(=O)[nH]c(=O)c-2cc2c(Cl)cccc21	3.8%
Cc1ccc(C(C)C)c(OCC(=O)Nc2ccc(S(=O)(=O)Nc3onc(C)c3C)cc2)c1	-0.1%
Cc1ccc(C)c(N2CCN(CCCNC(=O)c3cnn(-c4ccc(F)cc4)c3C3CCN(C(=O)OC(C)(C)C)CC3)CC2)c1	0.5%
Cc1cc(=O)[nH]c2nnc(SCC(=O)Nc3ccc(OC(F)(F)F)cc3)n12	-6.2%

Some of these compounds in order of count of non-hydrogen atoms, rising.
SMILES	ClpP mod
Cc1ccc(N2C(=O)CS(=O)(=O)C23C(=O)Nc2ccccc23)cc1C (centres undefined)	1.2%
Cc1cc(=O)[nH]c2nnc(SCC(=O)Nc3ccc(OC(F)(F)F)cc3)n12	-6.2%
CCOC(=O)N1CCN(C(=O)c2ccc3c(c2)N(Cc2ccccc2F)C(=O)c2ccccc2S3=O)CC1 (centres undefined)	0.1%

The list continues.
SMILES	ClpP mod
CCN(CC)CCOC(=O)c1ccc(NC(=O)CSc2cc(=O)n(CC)c3ccccc23)cc1	-6.1%
O=C(Nc1ccc(F)cc1F)c1cc(S(=O)(=O)N2CCCCC2)c[nH]1	0.2%
COc1ccc(CN2C(=O)c3ccccc3C2c2nnnn2C(C)C)cc1 (centres undefined)	-0.6%
Cc1ccc2nc(-c3cccs3)c(Nc3ccccc3)n2c1	4.0%
COc1ccccc1OCCCn1c(C2CC(=O)N(c3ccc(F)cc3)C2)nc2ccccc21 (centres undefined)	-1.2%
CC1=C(C(=O)N2CCCCCC2)CC(CC(=O)NCCc2ccccn2)C(=O)N1CCC1=CCCCC1 (centres undefined)	2.7%
COc1cccc(N2C(=O)C(CC(=O)Nc3cccc(F)c3)N(C3CCCC3)C2=O)c1 (centres undefined)	-2.9%

Seven records drawn at random from those above, as already listed:
SMILES	ClpP mod
CCN(CC)CCOC(=O)c1ccc(NC(=O)CSc2cc(=O)n(CC)c3ccccc23)cc1	-6.1%
COc1ccc(CN2C(=O)c3ccccc3C2c2nnnn2C(C)C)cc1 (centres undefined)	-0.6%
Cc1ccc2nc(-c3cccs3)c(Nc3ccccc3)n2c1	4.0%
O=C(Nc1ccc(F)cc1F)c1cc(S(=O)(=O)N2CCCCC2)c[nH]1	0.2%
COc1cccc(N2C(=O)C(CC(=O)Nc3cccc(F)c3)N(C3CCCC3)C2=O)c1 (centres undefined)	-2.9%
COc1ccccc1OCCCn1c(C2CC(=O)N(c3ccc(F)cc3)C2)nc2ccccc21 (centres undefined)	-1.2%
CC1=C(C(=O)N2CCCCCC2)CC(CC(=O)NCCc2ccccn2)C(=O)N1CCC1=CCCCC1 (centres undefined)	2.7%
